HNF4A DNA FP – change in binding of human HNF4A to DNA, primary screen, biochemical, fluorescence polarization, FITC-DNA; 1 h; Hepatocyte nuclear factor 4-alpha (Homo sapiens), P41235; activity change, % at 10 µM; AID 1224865, 2016; 360,000 compounds, 0.3% hits; in the data active = activity change above about 30%, passing the limit was not always enough;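 note: controls were the assay level and a saturating level of protein; the project sought stronger binding though the title names inhibitors; some compounds called inactive have numbers as strong as hits; positive values seem to mean higher polarization but the record does not say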
rRNA inh HTS – reduced GFP signal of wild-type E. coli, primary screen, bacterial rRNA inhibitor project, GFP/RFP fluorescence, OD600, single point; 350,000 compounds, 1.6% hits; GFP signal change (wild-type ribosome), % (test concentration not listed); E. coli WT GFP vs humanized-ribosome RFP mutants, 24 h; stronger effect = lower value; DMSO median 0, no signal -100;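 active = significant combined selectivity score with lowered wild-type GFP, culture density cut under 30%, mutant RFP and density less affected; inactive = any of these conditions unmet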; note: one replicate is shown; some compounds called inactive have numbers as strong as hits
ALR H2O2 inh – inhibitors of human ALR sulfhydryl oxidase, primary screen, biochemical, H2O2 detection, HRP-luminol luminescence, single point; AID 485317, 2010; FAD-linked sulfhydryl oxidase ALR (Homo sapiens), P55789; inhibition, % (test concentration not listed); purified ALR, DTT oxidation; 290,000 compounds, 3.8% hits;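 active = mean and each replicate at 75% or more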;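 note: stock transfer was 7.5 nL into about 7.5 µL; 0% = neutral wells and 100% = wells with inactivated enzyme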
Target sequence (P55789 whole entry, looked up): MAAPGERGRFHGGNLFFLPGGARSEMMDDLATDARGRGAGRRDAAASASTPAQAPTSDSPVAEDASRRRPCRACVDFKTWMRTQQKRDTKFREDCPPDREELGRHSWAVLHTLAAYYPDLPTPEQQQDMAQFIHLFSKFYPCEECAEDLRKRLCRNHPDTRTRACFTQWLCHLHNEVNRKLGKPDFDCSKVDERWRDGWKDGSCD
E coli growth – E. coli growth inhibition, primary screen, OD600. OD600 absorbance (test concentration not listed). 330,000 compounds, 0.21% hits. AID 1053175, 2014. Escherichia coli growth, 23 h; stronger effect = lower value;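 active = OD600 absorbance below the run mean of sample wells minus 3.6 SD, in any replicate, cut at about 0.56 in these data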;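 note: stock transfer was 300 nL into about 60 µL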
FGF22 binding – binders of human FGF22 protein, primary screen, FGF22 synaptogenesis inhibitor project, biophysical, thermal shift, single point; Fibroblast growth factor 22 (Homo sapiens), Q9HCT0; recombinant FGF22 thermal shift, SYPRO orange fluorescence; percent of sucrose octasulfate shift, DMSO zero; calls only at 9.99 µM; 340,000 compounds, 1.5% hits;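 active = melting point raised past a set limit in the mean and every replicate; three in four hits are not shown here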
Beta2AR agonist – beta2AR agonists driving receptor internalization, primary screen, cell-based, FAP fluorogen, flow cytometry; Am2.2-beta2AR cells; reference of the scale not given here; response, % (no concentration beside the values); AID 504454, 2011; 340,000 compounds, 0.43% hits; Beta-2 adrenergic receptor (Homo sapiens), P07550;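 active = response above a set limit, near 3 SD of response in nonfluorescent compounds, cut at about 42% in these data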;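 note: stock transfer was 100 nL into about 11 µL; a reference agonist was the positive control; negative values mostly stem from fluorescent compounds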
Target sequence (P07550 whole entry, looked up): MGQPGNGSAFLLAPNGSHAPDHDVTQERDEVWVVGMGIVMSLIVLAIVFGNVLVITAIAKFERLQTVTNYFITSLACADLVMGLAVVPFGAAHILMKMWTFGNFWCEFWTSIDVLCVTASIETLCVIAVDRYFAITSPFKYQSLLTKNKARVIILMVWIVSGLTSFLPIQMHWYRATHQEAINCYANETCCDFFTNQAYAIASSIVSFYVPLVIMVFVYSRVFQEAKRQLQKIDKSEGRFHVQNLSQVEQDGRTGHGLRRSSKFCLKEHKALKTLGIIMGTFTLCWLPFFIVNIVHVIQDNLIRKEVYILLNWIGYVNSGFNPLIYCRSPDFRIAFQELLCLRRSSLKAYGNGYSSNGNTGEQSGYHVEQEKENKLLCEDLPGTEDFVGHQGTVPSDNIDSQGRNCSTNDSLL
UCH37 DUB inh – inhibitors of human UCH37 deubiquitinase, primary screen, biochemical, Ub-AMC cleavage, fluorescence; purified proteasome/UCH37; inhibition, % (concentration not given with the values); 330,000 compounds, 0.33% hits; AID 588478, 2011;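 active = mean of two replicates above 20%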;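 note: 0% = compound-free wells with enzyme and 100% = wells lacking proteasome; stock transfer was 100 nL into about 20 µL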
Target sequence (Q9Y5K5 whole entry, looked up): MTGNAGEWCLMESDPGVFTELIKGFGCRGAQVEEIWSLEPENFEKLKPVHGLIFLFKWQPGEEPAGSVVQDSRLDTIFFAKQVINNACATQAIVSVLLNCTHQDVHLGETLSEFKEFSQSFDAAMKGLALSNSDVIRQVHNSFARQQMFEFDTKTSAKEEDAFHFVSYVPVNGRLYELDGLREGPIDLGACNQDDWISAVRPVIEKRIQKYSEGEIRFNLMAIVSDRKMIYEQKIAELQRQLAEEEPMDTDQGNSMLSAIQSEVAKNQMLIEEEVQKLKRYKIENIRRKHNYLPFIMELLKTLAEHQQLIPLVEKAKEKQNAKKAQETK
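system = Proteasome-associated human UCH37 deubiquitinase | amount = 0.15 nM proteasome as dispensed | medium = pH 7.4 Tris-HCl (50 mM) with ovalbumin, ATP-MgCl2, DTT | incubation = 30 min preincubation with enzyme, 25 min cleavage at room temperature | detection = AMC fluorescence 355/460 nm | read-out basis = percent inhibition | controls = no-proteasome and no-compound wells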
rRNA inh HTS OD600 – also measured in rRNA inh HTS; calls as there; OD600 change, %; measured here: OD600 growth;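 optical density of the mix in the first replicate; 0 = DMSO median and -100 = no signal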
rRNA inh HTS RFP – recorded beside rRNA inh HTS, whose call it bears; RFP signal change, %; measured here: RFP humanized mutant strains;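 first replicate; 0 = DMSO median and -100 = no signal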
* hit, by the source's call; i = inactive; . = no result given. Some of the compounds tested; count on the stated rates, not on these rows.

SMILES | HNF4A DNA FP | rRNA inh HTS | rRNA inh HTS OD600 | rRNA inh HTS RFP | ALR H2O2 inh | E coli growth | FGF22 binding | Beta2AR agonist | UCH37 DUB inh
CC1CN(S(=O)(=O)c2ccc(C(=O)Nc3ccc(S(=O)(=O)Nc4nccs4)cc3)cc2)CC(C)O1 (stereo unspecified) | 1.5 | -13 | 7 | -4.0 | 0 | 0.71 | i | -2 | 4.6
CCn1c(SCC(=O)Nc2ccc(OC)cc2)nc2c(c1=O)SCC2 | 1.6 | 0 | -6 | 0.1 | 45 | 0.65 | i | 2 | 3.5
CC(C)c1nc2sc3c(NCc4ccccc4)ncnc3c2c2c1COC(C)(C)C2 | 3.0 | . | . | . | 30 | 0.73 | . | 2 | -3.8
OCC[C@H]1C[C@@H](O)[C@H](O)[C@]2(OCCCc3ccccc32)O1 | 0.1 | 1 | 7 | 1.6 | . | . | i | 9 | -0.5
O=C(N[C@H]1C/C=C\C[C@@H](CC(=O)N(CCO)Cc2ccccc2)C(=O)N2CCC[C@@H]2COC1=O)OCC1c2ccccc2-c2ccccc21 | -2.1 | . | . | . | 0 | . | . | 3 | 0.0
CCCCN1C2CCCC1CC(NC(=O)c1ccc(OC)c(OC)c1)C2 (stereo unspecified) | 1.0 | . | . | . | -2 | 0.69 | . | 0 | -1.0
CCN(C(=O)C(C)Sc1ccc(S(=O)(=O)N2CCN(C)CC2)cn1)c1ccccc1 (stereo unspecified) | -0.1 | . | . | . | . | 0.7 | i | -1 | 2.3
CC1Cc2[nH]c(=S)[nH]c(=O)c2C(c2ccc(C(C)C)cc2)O1 (stereo unspecified) | -1.5 | 11 | 14 | 1.5 | . | . | i | . | .
CC(Oc1ccccc1F)C(=O)NNC(=O)C1CC(=O)N(c2ccc3c(c2)OCCO3)C1 (stereo unspecified) | -0.9 | 4 | 5 | -0.9 | 2 | 0.63 | i | -4 | 0.9
CCCCOc1ccc(C(=O)OCC(=O)NC2CCCC2)cc1 | -0.6 | 6 | 15 | 0.3 | -4 | 0.68 | i | 0 | 3.5
Cn1cnnc1SCc1ccc(C(=O)N=Nc2c(O)n(C)c3ccccc23)cc1 | 1.7 | . | . | . | -4 | 0.69 | . | 100* | 1.8
CCCCn1c(N)c(-c2nc3ccccc3s2)c2c([N+](=O)[O-])nn(CC)c(=O)c21 | 0.3 | . | . | . | -3 | 0.71 | . | 13 | 4.0
CCOc1ccccc1C(=O)N1CCN=C1SCc1cccnc1 | -0.5 | . | . | . | 99* | 0.71 | . | 0 | 8.1
Cc1cccc(NC(=O)C2CCN(S(=O)(=O)c3cccc4nonc34)CC2)c1 | -2.0 | -1 | 4 | 0.6 | -4 | 0.67 | i | 11 | -0.7
O=C(NCCC(=O)N1CCCC(C(F)(F)F)C1)c1ccc(Br)cc1 (stereo unspecified) | -4.6 | 0 | 0 | 0.9 | -2 | 0.73 | i | -12 | 3.1
CC1(C(=O)NS(=O)(=O)c2cccc(OC(F)F)c2)CCN1C(=O)C/C=C/c1ccccc1 (stereo unspecified) | 0.5 | 11 | 18 | 1.0 | . | . | i | . | .
O=C(CN1C(=O)c2cccc3cccc1c23)N1CCc2ccccc2C1 | -1.4 | . | . | . | -66 | 0.73 | . | 5 | -24
O=C1NC(Cc2ccccc2)c2nc3ccc(F)cc3c(=O)n2-c2cc3ccccc3cc21 (stereo unspecified) | -0.3 | 7 | 25 | 3.9 | . | . | i | . | .
Cc1ccc(NC(=O)Nc2nnc([C@@H]3C[C@H](O)[C@@H](CO)O3)s2)cc1 | 1.5 | 5 | -2 | 0.6 | . | . | i | . | .
Cc1nc2c(nnn2Cc2ccccc2)c(=O)n1-c1ccccc1 | -1.4 | . | . | . | -14 | 0.72 | . | -6 | -1.0
O=C1CNC(=S)N1CCCn1ccnc1 | 2.9 | 4 | 8 | 0.3 | 11 | 0.72 | i | 6 | 3.5
CCOc1ccc(-n2c(SCC(=O)Nc3ccc4c(c3)OCO4)nc3ccccc3c2=O)cc1 | 1.3 | . | . | . | 5 | 0.74 | . | -2 | 0.2
CCOC(=O)N[C@H](Cc1c[nH]c2ccccc12)C(=O)NC1CC1 | -1.6 | -10 | -28 | -4.8 | 2 | 0.72 | i | 6 | 1.1
CN(C)CCN(Cc1ccccc1)C(=O)c1[nH]c(C(F)(F)F)nc1-c1ccccc1 | -0.4 | 3 | 6 | -0.7 | . | . | i | . | .
O=C(Nc1ccc(Br)cc1)c1cccnc1N1CCOCC1 | 0.8 | . | . | . | -1 | 0.67 | . | -7 | 4.9

Only HNF4A DNA FP and ALR H2O2 inh (4 entries from above):
SMILES	HNF4A DNA FP	ALR H2O2 inh
CC(Oc1ccccc1F)C(=O)NNC(=O)C1CC(=O)N(c2ccc3c(c2)OCCO3)C1 (stereo unspecified)	-0.9	2
O=C1NC(Cc2ccccc2)c2nc3ccc(F)cc3c(=O)n2-c2cc3ccccc3cc21 (stereo unspecified)	-0.3	.
CCOc1ccccc1C(=O)N1CCN=C1SCc1cccnc1	-0.5	99*
CN(C)CCN(Cc1ccccc1)C(=O)c1[nH]c(C(F)(F)F)nc1-c1ccccc1	-0.4	.

The list continues:
SMILES | HNF4A DNA FP | rRNA inh HTS | rRNA inh HTS OD600 | rRNA inh HTS RFP | ALR H2O2 inh | E coli growth | FGF22 binding | Beta2AR agonist | UCH37 DUB inh
CCC(O)c1nc2ccccc2n1CCc1ccccc1 (stereo unspecified) | -1.0 | 5 | -2 | 1.2 | -7 | 0.67 | i | -2 | 0.4
COc1ccc(S(=O)(=O)N2CCc3ccccc32)cc1C(=O)NCc1ccco1 | 5.8 | -1 | -8 | 0.4 | . | 0.64 | i | 3 | 3.8
Cc1noc(C)c1CSCC(=O)OCC(=O)NC1CCCCC1 | -0.9 | . | . | . | -1 | 0.68 | . | 3 | 3.6
CCN(CC)S(=O)(=O)c1ccc(OC)c(NC(=O)c2ccc3c(c2)OCO3)c1 | -6.1 | 16 | 11 | -0.7 | -3 | 0.7 | i | 0 | 2.9
Cn1c(SCC(=O)NC(=O)NCc2ccco2)nnc1-c1ccccc1 | -4.2 | . | . | . | 2 | 0.64 | . | 3 | 1.2
N#CCOc1ccccc1P(=O)(c1ccccc1)c1ccccc1 | 5.3 | 4 | 4 | 1.4 | 3 | 0.66 | i | 3 | 2.7
Cc1cccc(OCC2=N/C(=C\N(C)C)C(=O)O2)c1 | 2.1 | . | . | . | . | 0.69 | . | 2 | 6.8
COc1cc(NC(=O)COC(=O)CC2CC3CCC2C3)cc(OC)c1 (stereo unspecified) | 1.5 | -22 | -50 | 12 | . | 0.68 | i | -2 | 1.5
c1ccc(-c2noc(-c3cccc4ccccc34)n2)nc1 | -2.3 | . | . | . | 5 | 0.72 | . | -12 | -33
O=C(COc1nc2ccccc2nc1N1CCOCC1)NCC(F)(F)F | 2.5 | . | . | . | -7 | 0.75 | i | -5 | 11
CC(=O)c1sc(NC(=O)c2cccc3ccccc23)nc1C | -0.8 | . | . | . | -16 | 0.73 | . | 13 | 4.8
CCCN(CCC)CCCNC(=S)Nc1ccc2nc(N3CCN(C)CC3)cc(C)c2c1 | -2.2 | 3 | -5 | -5.6 | -2 | 0.68 | i | 4 | -8.8
CC1CCN(C(=O)CSc2nc3ccccc3s2)CC1 | 10 | . | . | . | 99* | . | . | -4 | .
Cc1nn(-c2ccc(C(=O)O)cc2)c(C)c1Cl | -3.4 | -10 | -16 | -3.9 | 2 | 0.67 | i | 7 | 2.6
CCN(CC)c1ccc(C(=O)Nn2cnc3ccccc3c2=O)cc1 | 2.4 | -17 | -29 | -2.2 | -11 | 0.67 | i | -1 | -6.5
Cc1cc(N(C)C(=O)c2ccc3c(c2)S(=O)(=O)c2cc(Cl)ccc2C3=O)c(C(F)(F)F)o1 | 0.3 | -4 | -1 | -4.2 | -1 | 0.73 | i | 3 | 4.3
CC(=O)Nc1ccc(NC(=O)CSc2nnc(NC(=O)C3CC(=O)N(c4ccccc4)C3)s2)cc1 (stereo unspecified) | -2.9 | 17 | 10 | 5.8 | -10 | 0.72 | i | -4 | 4.7
Cc1ccc(S(=O)(=O)Nc2ccc(F)cc2)cc1C(=O)N1CCOCC1 | 5.0 | 1 | 4 | -2.8 | 0 | 0.68 | i | -1 | 2.5
CN(CC(=O)NCCc1ccc(S(N)(=O)=O)cc1)CC(=O)Nc1ccc(Cl)c(C(F)(F)F)c1 | -0.7 | -15 | -24 | 4.7 | . | 0.62 | i | 7 | 3.7
Cn1c(SCc2ccccc2)nnc1-c1cnccn1 | -1.9 | . | . | . | -2 | 0.73 | . | 7 | 0.2
CC(C)N(Cc1nc(-c2ccccc2)no1)C(=O)C1CCCCC1 | -1.4 | -39 | -67 | -15 | -4 | 0.67 | i | -9 | 2.4
CCS(=O)(=O)N1CCC(C(=O)O)CC1 | 1.1 | 12 | 5 | 1.6 | 0 | 0.69 | i | 0 | 6.9
CCNC(=O)/C(C#N)=C/c1c(N2CCN(c3cccc(Cl)c3)CC2)nc2c(C)cccn2c1=O | -0.3 | -3 | -2 | 4.6 | -7 | 0.67 | i | 6 | -1.2
O=C1c2ccccc2C(=O)N1/N=C/c1ccc(O)c(O)c1 | -3.6 | . | . | . | 99* | . | . | 7 | .
O=C(O)/C=C\C(=O)Nc1cccc(NC(=O)c2ccccc2)c1 | -2.3 | 0 | 5 | 2.6 | -32 | 0.69 | . | 14 | 3.2

Profiles, quoted from the list. Screens in order: HNF4A DNA FP | rRNA inh HTS | rRNA inh HTS OD600 | rRNA inh HTS RFP | ALR H2O2 inh | E coli growth | FGF22 binding | Beta2AR agonist | UCH37 DUB inh
Shown for N#CCOc1ccccc1P(=O)(c1ccccc1)c1ccccc1 : 5.3 | 4 | 4 | 1.4 | 3 | 0.66 | i | 3 | 2.7
Shown for CCC(O)c1nc2ccccc2n1CCc1ccccc1 (stereo unspecified) : -1.0 | 5 | -2 | 1.2 | -7 | 0.67 | i | -2 | 0.4
Shown for COc1cc(NC(=O)COC(=O)CC2CC3CCC2C3)cc(OC)c1 (stereo unspecified) : 1.5 | -22 | -50 | 12 | . | 0.68 | i | -2 | 1.5

The list continues.
SMILES | HNF4A DNA FP | rRNA inh HTS | rRNA inh HTS OD600 | rRNA inh HTS RFP | ALR H2O2 inh | E coli growth | FGF22 binding | Beta2AR agonist | UCH37 DUB inh
Cc1cc(NC(=O)c2ccco2)no1 | 1.1 | . | . | . | -9 | 0.67 | . | 10 | 4.5
O=C(CCCCCN1C(=O)c2ccccc2C1=O)Nc1ccccc1F | 0.8 | 0 | -4 | 0.5 | -5 | 0.67 | i | 4 | 3.3
O=C(O)c1ccccc1C(=O)Nc1ccc(Nc2ccccc2)cc1 | 0.1 | -5 | 3 | -0.8 | . | . | i | . | .
Cc1cc(C)cc(NC(=O)C2CCN(S(C)(=O)=O)CC2)c1 | -0.1 | 9 | 9 | 5.8 | -9 | 0.71 | i | 4 | 7.0
Cn1cccc1/C=N/NC(=O)c1cccs1 | 1.4 | 3 | 9 | 0.0 | 6 | . | i | 2 | .
COc1ccc(S(=O)(=O)Cc2ccccc2)cc1N | 1.2 | . | . | . | 6 | 0.71 | . | -8 | 4.0
O=C(O)C(c1ccccc1)c1ccccc1 | 0.1 | 0 | 5 | -2.7 | -8 | 0.76 | i | -6 | 0.7

Screens as filed in PubChem BioAssay.
